Env fusion inh: inhibitors of HIV-1 Env-driven cell-cell fusion, primary screen, HeLa-JRFL effector, CEM21 target cells, luciferase; inhibition, % at 12.3 µM; 1.1% of 360,000 active; AID 651610, 2012;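 active = mean replicate inhibition score of at least 50 and every replicate individually at or above 50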;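 note: 0% = plate neutral controls and 100% = maraviroc near 300 nM; one replicate is shown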
MT1-MMP act inh: blockers of MT1-MMP proenzyme processing, primary screen, HT1080 RFP-PRO-GFP cells, GFP/RFP fluorescence | GFP/RFP ratio fluorescence, overnight; percent of plate control window, DMSO zero | Matrix metalloproteinase-14 (Homo sapiens), P50281 | AID 651647, 2012 | GFP/RFP ratio change, % at 20 µM | 0.061% of 360,000 active;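 active = GFP/RFP ratio change of at least 30% with cell ATP level not reduced by more than half and red fluorescence within 50% of control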; note: strong numbers were not always called active
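Assay system – RFP-PRO-GFP reporter HT1080 cells · Compound dosing – single dose of 20 µM compound, 1% DMSO final · Incubation – overnight compound exposure at 37 °C · Measure – GFP/RFP fluorescence ratio · Benchmarks – DMSO wells and RFP-L50D-GFP cells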
Rce1 inhib: yeast Rce1p protease inhibitors, primary screen, biochemical, fluorescence, cell-free homogeneous; CAAX prenyl protease 2 (Saccharomyces cerevisiae (strain ATCC 204508 / S288c)), Q03530; yeast membranes, quenched prenylated peptide cleavage fluorescence; calls only; 0.27% of 290,000 active; AID 2563, 2010;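 active = fall in fluorescence gain of 50% or more versus controls, with final raw signal at or below 3038400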;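 note: plate controls were neutral control wells for no effect and wells lacking membranes for full effect; tested at 10 µM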
CSC inhib: cancer stem cell viability inhibitors, primary screen, luminescence. cancer stem cell-like cells viability. inhibition, % at 7.5 µM. 1.1% of 300,000 active. AID 2717, 2010;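 active = mean at 75% or more and at least half the replicates too; tested in HMLE shEcad cells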;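 note: 0% = median of negative and 100% = median of positive control wells; the first replicate is given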
eIF4H FP inh: human eIF4H binding inhibitors, primary screen, translation initiation inhibitor project, biochemical, uHTS, fluorescence polarization; eIF4H fluorescence polarization binding assay; inhibition, % at 35 µM; 0.94% of 290,000 active; Eukaryotic translation initiation factor 4H (Homo sapiens), Q15056; AID 2012, 2009;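 active = 50% or more with normal probe brightness, or confirmed in later tests; about a fifth of its hits are not listed in these tables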;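 note: calls also rest on retests at 20 µM and on dose response follow-up; 0% = protein and probe with vehicle and 100% = probe without protein; strong numbers were not always called active; many hits fall short of the cut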
Yeast UUG start: modulators of yeast start codon fidelity, primary screen, whole organism, S. cerevisiae, single point, plate reader | S. cerevisiae UUG-firefly luciferase reporter, luminescence/redox ratio | activity score, % at 18.7 µM | 0.13% of 350,000 active;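 active = replicate mean at a twofold rise or more, about +100% in these data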;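 note: firefly luciferase made from a UUG start codon reports start codon fidelity; reporter light over untreated wells divided by growth signal over untreated wells; some hits fall short of that in this replicate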
PABP polyA inh: PABP poly(A) RNA binding inhibitors, primary screen, biochemical, fluorescence polarization, uHTS. Polyadenylate-binding protein 1 (Homo sapiens), P11940. inhibition, % at 35 µM. 1% of 290,000 active. AID 2014, 2009;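 active = 50% or more with normal probe brightness, or confirmed in later tests; about a fifth of its hits are not listed in these tables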;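 note: calls also rest on retests at 20 µM and on dose response follow-up; controls were probe without protein and protein plus probe with vehicle; some compounds called inactive have numbers as strong as hits; many hits fall short of the cut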
Target sequence (P11940 whole entry, looked up): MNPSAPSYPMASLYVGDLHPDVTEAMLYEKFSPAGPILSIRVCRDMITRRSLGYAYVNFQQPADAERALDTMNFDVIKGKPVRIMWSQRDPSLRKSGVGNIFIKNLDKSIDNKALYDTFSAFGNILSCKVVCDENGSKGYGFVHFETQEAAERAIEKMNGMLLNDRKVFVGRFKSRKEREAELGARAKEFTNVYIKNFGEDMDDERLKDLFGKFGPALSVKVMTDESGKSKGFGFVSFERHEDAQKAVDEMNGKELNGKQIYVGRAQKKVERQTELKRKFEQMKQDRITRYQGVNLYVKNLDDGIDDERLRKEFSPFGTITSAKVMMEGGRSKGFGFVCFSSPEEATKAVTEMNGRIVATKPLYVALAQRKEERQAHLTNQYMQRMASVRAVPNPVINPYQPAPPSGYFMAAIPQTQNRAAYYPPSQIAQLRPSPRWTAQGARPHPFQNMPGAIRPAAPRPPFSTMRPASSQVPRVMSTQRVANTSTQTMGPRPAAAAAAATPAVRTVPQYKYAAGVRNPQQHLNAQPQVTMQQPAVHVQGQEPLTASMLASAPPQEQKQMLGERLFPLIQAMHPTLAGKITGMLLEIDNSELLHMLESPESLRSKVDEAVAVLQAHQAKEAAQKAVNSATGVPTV
eIF4H FP inh retest: further read-out of eIF4H FP inh, marked with its call; inhibition, %; compound at 20 µM; confirmation average;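 mean of two retest wells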
PABP polyA inh retest: also measured in PABP polyA inh; calls as there; inhibition, %; compound at 20 µM; confirmation repeats;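 mean of two retest wells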
MT1-MMP act inh RFP: also measured in MT1-MMP act inh; calls as there; RFP signal change, %; measured here: RFP expression control read;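 0 = vehicle wells; hits needed this value within 50% of zero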
* hit, by the source's call; i = inactive; nt = not tested or not shown. An excerpt; the hit share may differ from the screen's.

SMILES | Env fusion inh | MT1-MMP act inh | MT1-MMP act inh RFP | Rce1 inhib | CSC inhib | eIF4H FP inh | Yeast UUG start | PABP polyA inh | others
O=C1N/C(=N\c2ccccn2)SC1Cc1ccccc1Cl (centres undefined) | -3 | 2 | -3 | i | 11 | 5 | nt | 0
O=C(NN=C1CCN(Cc2ccccc2)CC1)c1ccccc1O | 5 | -1 | 1 | i | -1 | -7 | nt | -4
Cc1ccccc1-n1c(SCC(=O)NC2CCS(=O)(=O)C2)nc2ccccc2c1=O (centres undefined) | 3 | -4 | 0 | nt | nt | nt | -5 | nt
Cc1ccc2c(COC(=O)C3CSC4(C)CCC(=O)N34)cc(=O)oc2c1C (centres undefined) | nt | -1 | 5 | nt | -5 | nt | -3 | nt
Cc1cnc(CNC(=O)CC2C(=O)NCCN2Cc2ccccc2F)cn1 (centres undefined) | -12 | -4 | 2 | i | 1 | 53 | -15 | 39 | eIF4H FP inh retest=8;PABP polyA inh retest=28
O=C(O)c1cc(S(=O)(=O)NCCN2CCNC2=O)ccc1O | 18 | 3 | 4 | i | 3 | -2 | -9 | 0
CC(=O)C[C@@H](O)CC(=O)[C@H]1OC(=O)[C@@H](C)C/C=C\Cc2ccccc21 | 21 | -3 | 4 | nt | nt | nt | -3 | nt
CCN1CCN(C(=O)c2c(-c3c(F)cccc3Cl)noc2C)CC1 | -46 | -4 | 0 | i | -4 | 4 | 3 | 14
CCCN1CCC(NC(=O)CCc2nnc(-c3ccccc3)o2)CC1 | 3 | 4 | 4 | i | 1 | -11 | 9 | -4
COc1ccc(S(=O)(=O)N2CCN(C)CC2)cc1NC(=O)c1ccccc1 | 5 | -1 | 1 | i | 1 | -8 | -12 | 12
O=C(NCCC1=CCCCC1)c1ccc(Cl)c([N+](=O)[O-])c1 | nt | -4 | -4 | i | 10 | -2 | -15 | 10
c1coc(Cn2c(SCc3nc4ccccc4[nH]3)nnc2-c2cnccn2)c1 | -66 | -7 | -2 | i | -3 | 25 | -26 | 19
COc1ccc(C(=O)C2CCCN(C(=O)c3cc(C)nc(C)n3)C2)cc1OC (centres undefined) | -6 | -1 | 0 | i | -7 | 5 | 0 | -3
CCCc1nnc(NC(=O)C2CC(=O)N(C3CCCC3)C2)s1 (centres undefined) | 1 | 1 | 2 | i | nt | -8 | -19 | -2
COc1ccc(-c2nnc3sc(-c4ccccn4)nn23)cc1 | nt | nt | nt | i | -6 | -4 | nt | -3
O=[N+]([O-])c1ccccc1S(=O)(=O)Nc1cccc(-c2ccc(N3CCCC3)nn2)c1 | -22 | 2 | -1 | i | 16 | nt | 5 | nt
ON=C(CCc1ccccc1)CCc1ccccc1 | 17 | -2 | 3 | nt | nt | nt | -10 | nt
CCOC(=O)N1CCN(CC(O)COC2CC(C)CCC2C(C)C)CC1 (centres undefined) | nt | 1 | -2 | i | 0 | -5 | nt | 10
O=C(c1ccco1)N1CCN(C(=O)c2ccc(COc3ccc(F)cc3)o2)CC1 | nt | 3 | -8 | i | 15 | -4 | -3 | 5
O=c1c(CO)cc(CO)cc(CO)c1O | -14 | 1 | 4 | i | -10 | 36 | nt | -2
COc1ccc(-c2[nH][nH]c(=O)c2NC(=O)c2ccccn2)cc1 | 30 | 1 | 4 | nt | nt | nt | -23 | nt
COc1cc(SC)ccc1C(=O)Nc1nccs1 | -122 | -2 | -3 | nt | 7 | -6 | -64 | 1
Cc1cc(O)c(C(=O)/C=C/c2ccc(C(C)C)cc2)c(=O)o1 | -82 | -8 | 10 | i | 5 | 1 | -23 | -14
CCN(CC)C(=O)CSc1nc(O)cc(=O)n1CC | 15 | 1 | 2 | i | 1 | -7 | 12 | 0
COc1cc(NC(=O)C2=CC(c3ccc(C)cc3)=NS(=O)(=O)N2C)cc(OC)c1OC | -7 | 4 | -10 | i | -4 | -2 | -8 | -5
CCOc1ccc(NC(=S)NCC(c2cccnc2)N2CCOCC2)cc1 (centres undefined) | 27 | -1 | 1 | i | 7 | 7 | -27 | -9
Cc1cccn2c(=O)nc(SCC(=O)N3CCOCC3)nc12 | -10 | 1 | 5 | i | -10 | nt | 10 | nt
COc1ccc(CNC(=O)c2cc(=O)c3c(C)cc(C)cc3o2)cc1 | 3 | 0 | -1 | i | -14 | -13 | -14 | -6
COc1ccc(NC2CCCN(C(=O)c3cccs3)C2)cc1 (centres undefined) | -5 | 3 | 4 | i | -8 | -2 | -21 | 4
CC(C)(C)c1cc(C(F)(F)F)nc(SCCCNC(=O)c2ccco2)n1 | nt | -6 | -17 | i | -9 | -1 | 4 | 2
CCc1ccc(N(CC(=O)NCc2ccco2)C(=O)CCC(=O)Nc2ccccn2)cc1 | -4 | 0 | -1 | i | -15 | 8 | -10 | -2
CC(Cc1ccccc1)NC(=O)CSc1nc2nc3c(cc2c(=O)n1-c1ccccc1)COC(C)(C)C3 (centres undefined) | -146 | -2 | -3 | i | -7 | 7 | -12 | 0
COc1ccc(/C=C/c2nnc(NC(=O)COc3ccc(C)cc3)s2)cc1 | 20 | 0 | 1 | i | nt | 7 | nt | 0
Cc1cccc(C(=O)N2CCC(=O)N(C(COCc3ccccc3)Cc3ccccc3)CC2)c1 (centres undefined) | 29 | -3 | -6 | i | -13 | -10 | -4 | 2
Cc1c(C(=O)N2CCOCC2)c(S(=O)(=O)Nc2ccc(Br)cc2F)c(C)n1C | -4 | 0 | 5 | i | 0 | -2 | 8 | 6
CC1(C)CC(=O)C=C(NC2=CC3OC(c4ccccc4)OCC3OC2=O)C1 (centres undefined) | 9 | 0 | -4 | i | 14 | 10 | nt | -1
COC(=O)c1cn(NC(=O)c2ccc(F)cc2)c(=O)c2ccccc12 | -41 | 0 | 2 | i | -15 | 3 | nt | 4
Cc1ccc(S(=O)(=O)NCc2nc(-c3ccccc3)no2)cc1 | nt | -3 | 2 | i | -12 | -2 | -13 | 2
CN(C)c1ccc(/C=N/NC(=O)c2ccc(Cn3cc(Br)cn3)o2)cc1 | -90 | 2 | 0 | i | 5 | -1 | -21 | 2
COc1cccc(C(=O)NNC(=O)c2cccc3ccccc23)c1 | -20 | -1 | 3 | nt | nt | nt | -28 | nt
CC1(C(=O)Nc2ccccc2Cc2ccccc2)CCN1CCc1ccccc1 (centres undefined) | 51 | -8 | -9 | nt | nt | nt | 9 | nt
CCN(CC)CCN(C(=O)/C=C/c1cccs1)c1nc2ccc(C)cc2s1 | -5 | 5 | 2 | i | -33 | -12 | -9 | -1
Cc1[nH]c2ccccc2c1/C=N/NC(=O)c1cccc(Br)c1 | nt | -2 | -6 | i | -10 | -16 | 0 | 6
NCc1ccccc1 | -2 | 0 | 4 | nt | -6 | nt | -6 | nt
CCOC(=O)c1nnn(-c2ccc(OC)cc2)c1N | -69 | -3 | 1 | nt | 0 | -15 | -17 | 0
Cn1c(=O)c(C(=O)c2ccc(S(C)(=O)=O)c(Cl)c2Cl)c(O)c2ccccc21 | -12 | -2 | -1 | i | 1 | nt | -8 | nt
COc1cc(S(=O)(=O)n2nc(C)cc2C)ccc1Cl | -18 | -2 | 0 | i | -6 | 0 | -10 | -4
CCCn1c(=O)c2ccccc2n2c(SCCOc3ccc(OC)cc3)nnc12 | nt | -9 | -5 | i | -3 | -6 | -13 | -2
O=S1(=O)CCN(Cc2cccnc2)CC1 | -3 | -8 | 4 | nt | nt | nt | -1 | nt
O=C(COc1ccc2ccccc2c1)NNC(=O)c1cccs1 | 20 | 2 | 5 | i | 5 | 10 | 0 | -2

Next section:
SMILES | Env fusion inh | MT1-MMP act inh | MT1-MMP act inh RFP | Rce1 inhib | CSC inhib | eIF4H FP inh | Yeast UUG start | PABP polyA inh | others
Cc1cc(OCC(=O)N(C)Cc2ccccc2)ccc1Br | 6 | 0 | -5 | i | -11 | -6 | 10 | 0
CC(=O)Oc1ccc2occ(/C=N/c3cc(=O)[nH]c(=S)[nH]3)c(=O)c2c1 | -12 | 0 | 0 | i | -5 | 36 | 0 | 44
COc1ccc(C2(c3ccc(OC)cc3)NC(=O)N(CC(=O)NC3(C#N)CCCCC3)C2=O)cc1 | nt | 3 | -1 | nt | -11 | nt | -19 | nt
Cn1c(Cc2cccc3ccccc23)nnc1SCc1ccc([N+](=O)[O-])cc1 | -10 | 4 | 2 | i | 1 | -1 | nt | -2
CC1=NN(c2ccccc2)C(=O)C1=Cc1ccccc1 | 29 | 8 | -1 | nt | nt | nt | -7 | nt
CCCc1nc2ccc(C)cn2c1Cc1ccccc1OC | 19 | -1 | -1 | nt | nt | nt | 45 | nt
O=C1CC(c2nc3ccccc3[nH]2)CN1c1cccc(C(F)(F)F)c1 (centres undefined) | 3 | 3 | -3 | i | 0 | -6 | -5 | -2
CC(=O)Cn1cnc2sc(-c3ccccc3)cc2c1=O | -244 | -7 | -1 | i | 11 | 10 | -9 | 6
O=C(NNC(=O)c1ccc(-n2cncn2)c([N+](=O)[O-])c1)c1cccc(Cl)c1 | 2 | 4 | 1 | i | -3 | nt | nt | nt
CC1=NN(Cc2ccccc2)C(=O)C1C(c1ccncc1)C(C#N)C#N (centres undefined) | 9 | 2 | 1 | i | -12 | 0 | nt | 13
Cc1cc(C)cc(-n2ncc3c2CCCC3NC(=O)c2csnn2)c1 (centres undefined) | -34 | 2 | -1 | i | -6 | -5 | -27 | 8
Cc1cccc2c1cnn2C(=O)CCC(=O)N1CCC(C)CC1 | 10 | 2 | 6 | i | -8 | -3 | -1 | 4
CCNC(=O)N1CCCC(C(=O)c2ccc(-c3ccccc3)cc2)C1 (centres undefined) | -15 | -3 | -10 | i | 11 | -1 | 10 | -8
COc1ccc(NC(=O)CS(=O)c2cccc(Cl)c2)cc1 (centres undefined) | 1 | -2 | -1 | i | -20 | -6 | -8 | 17
N/C(=N\OC(=O)Cc1ccc(Cl)cc1)c1cccnc1 | nt | -4 | 3 | i | 13 | -5 | -13 | -2
O=C(c1ccoc1)N1CCCC(N2CCN(c3ccc(F)cc3)CC2)C1 (centres undefined) | -13 | 1 | -1 | i | -8 | -4 | -13 | 0
Cc1cc2c3c([nH]c2cc1S(=O)(=O)NCc1ccc(CN2CCCCCC2)o1)CC(C)(C)CC3=O | 8 | 2 | 2 | i | -10 | -1 | 7 | -1
Cc1ccc(S(=O)(=O)N(CC(=O)Nc2ccccc2)C(=O)N2CCN(C)CC2)cc1 | -20 | 5 | -1 | i | -10 | nt | nt | nt
Cc1nn(CC(=O)NCCCc2ccccc2)c(=O)c2cc3occc3n12 | 0 | nt | nt | i | -13 | -1 | -15 | 4
COc1ccc(NC(=O)c2ccc(S(=O)(=O)N3CCOCC3)o2)cc1 | -9 | 1 | -5 | i | 13 | -9 | -6 | 4

Among those listed so far, 2 contain a CF3 group.
SMILES | Env fusion inh | MT1-MMP act inh | MT1-MMP act inh RFP | Rce1 inhib | CSC inhib | eIF4H FP inh | Yeast UUG start | PABP polyA inh | others
CC(C)(C)c1cc(C(F)(F)F)nc(SCCCNC(=O)c2ccco2)n1 | nt | -6 | -17 | i | -9 | -1 | 4 | 2
O=C1CC(c2nc3ccccc3[nH]2)CN1c1cccc(C(F)(F)F)c1 (centres undefined) | 3 | 3 | -3 | i | 0 | -6 | -5 | -2

Compound activity from PubChem BioAssay.
